# Assay outcomes deposited in PubChem BioAssay by Johns Hopkins Ion Channel Center.
# KCNQ2 pot: KCNQ2 (rat) channel potentiation | O88943 | CHO-K1 KCNQ2, FluxOR thallium flux fluorescence; hits give high values | B-score at 10 µM | actives 0.54% (n = 310,000) | AID 2239;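 active = fluorescence ratio B-score at least 3 SD of library B-scores, with initial fluorescence B-score within 3 SD, cut at about 5.3 in these data; same plate scores as AID 2156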;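 also: B-score of peak minus minimum over baseline fluorescence ratio after K+ and Tl+ stimulus; positive B-score means potentiation of KCNQ2 with more thallium influx and brighter signal; only the inactives scoring about 0 or higher are listed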
# Target sequence (O88943 whole entry, looked up): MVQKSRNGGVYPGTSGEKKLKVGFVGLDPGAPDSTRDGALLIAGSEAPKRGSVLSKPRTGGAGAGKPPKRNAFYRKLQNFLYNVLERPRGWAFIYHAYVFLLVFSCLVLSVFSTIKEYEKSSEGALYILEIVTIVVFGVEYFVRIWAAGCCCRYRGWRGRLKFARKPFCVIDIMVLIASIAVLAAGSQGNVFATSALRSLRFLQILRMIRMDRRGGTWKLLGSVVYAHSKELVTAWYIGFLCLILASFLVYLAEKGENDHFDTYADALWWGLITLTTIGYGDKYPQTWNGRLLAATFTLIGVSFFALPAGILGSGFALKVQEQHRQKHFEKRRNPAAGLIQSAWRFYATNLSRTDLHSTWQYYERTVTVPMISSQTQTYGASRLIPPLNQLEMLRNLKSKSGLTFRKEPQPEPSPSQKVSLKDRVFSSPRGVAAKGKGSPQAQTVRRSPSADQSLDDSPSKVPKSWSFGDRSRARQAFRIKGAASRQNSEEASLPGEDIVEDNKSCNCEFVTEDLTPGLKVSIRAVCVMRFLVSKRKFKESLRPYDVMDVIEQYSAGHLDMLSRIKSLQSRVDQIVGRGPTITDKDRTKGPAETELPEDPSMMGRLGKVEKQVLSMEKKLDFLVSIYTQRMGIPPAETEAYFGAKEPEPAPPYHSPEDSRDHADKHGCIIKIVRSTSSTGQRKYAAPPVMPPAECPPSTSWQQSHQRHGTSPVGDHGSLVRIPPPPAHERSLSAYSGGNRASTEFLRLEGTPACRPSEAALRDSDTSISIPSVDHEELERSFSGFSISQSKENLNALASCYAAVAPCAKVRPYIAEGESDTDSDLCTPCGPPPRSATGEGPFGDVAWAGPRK
# KCNQ2 pot baseline: second read-out of KCNQ2 pot, no call of its own (marks repeat the call); B-score; compound at 10 µM; measured here: initial fluorescence intensity artifact check;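 brightness before thallium and not channel activity; 0 = typical well and far values either way flag optical interference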
# The depositor's hits bear a star. These rows are one share of the data. The share of hits here may be higher or lower than overall.
no.	compound	KCNQ2 pot	KCNQ2 pot baseline
1	O=C(O)/C(=C\c1cccc(F)c1)c1ccc(S(=O)(=O)N2CCCCC2)s1	2.1	-0.45
2	Cn1c(CNC(=O)c2ccccc2F)nnc1SCc1ccc(F)cc1	1.7	0.27
3	CC(C)=N/N=c1\scc(C)n1Cc1ccco1	0.01	1.1
4	CCOC(=O)CN1C(=O)C(C)(C)Oc2ccc(C(=O)Nc3ccccc3)cc21	0.06	-0.98
5	Cc1ccc(C)c(S(=O)(=O)N2CCN(C(=O)c3cnccn3)CC2)c1	0.21	0.15
6	Cc1ccc2nc(NC(=S)NC(=O)c3ccco3)sc2c1	12*	0.5*
7	O=C(CCC1CCCCC1)NCc1ccc(F)cc1	4.2	0.79
8	CCc1nnc(SCC(=O)Nc2ccccc2)n1CC1CCCO1 (stereo not given)	0.17	0.98
9	Nc1nc(SCC(=O)Nc2ccc(S(N)(=O)=O)cc2)n[nH]1	0.39	-1.4
10	Cc1ccc(/C=C/C(=O)NCc2ccncc2)cc1	0.19	-0.08
11	C/C(=N\NC(=O)c1nnn(-c2nonc2N)c1CSc1ccccc1)c1cccnc1	0.05	0.9
12	CCc1cccc(C)c1NC(=S)NCC(c1cccnc1)N(C)C (stereo not given)	0.78	0.15
13	O=C(NCc1n[nH]c(=O)c2ccccc12)C1CC(=O)N(c2ccccc2)C1 (stereo not given)	0.29	0.64
14	O=C(COC(=O)c1ccc(O)cc1O)NC1CCS(=O)(=O)C1 (stereo not given)	0.73	-0.39
15	Cc1nnc(C)c2c(C)n(-c3cccc4cccnc34)c(C)c12	0.24	-1.9
16	O=C(Nc1cc(=O)[nH]c(=O)[nH]1)c1cccc(Br)c1	0.07	-2.4
17	CCN1CCN(C(=O)CN(c2ccccc2C)S(C)(=O)=O)CC1	0.63	-0.56
18	Cc1ccc(C(=O)C(OC(=O)CN2C(=O)c3ccccc3C2=O)c2ccccc2)cc1C (stereo not given)	7.5*	-0.63*
19	CCCN(CC(=O)Nc1cc(Cl)ccc1Cl)C(=O)c1ccccc1SCC(=O)N1CCCC1	0.02	-0.27
20	CC(C)(C#CC(O)(c1ccccc1)c1ccccc1)N1CCCCC1	0.87	1.7
21	O=[N+]([O-])c1cncc([N+](=O)[O-])c1Nc1ccccc1Cl	0.32	-0.03
22	OCCN=c1cc(-c2ccccc2)oc2ccc(Cl)cc12	0.62	-2.1
23	Cn1c(=O)c(=O)n(C)c2cc(S(=O)(=O)CCC(=O)Nc3c(F)c(F)c(F)c(F)c3F)ccc21	2.9	0.81
24	Cc1nc2c3cnn(-c4ccccc4)c3ncn2n1	1.2	0.02
25	Cc1nn(CC(=O)Nc2ccccn2)c(C)c1Br	0.59	-0.11
26	Cc1ccc(S(=O)(=O)N2CCC(NC(=O)OC(C)C)CC2)cc1	0.34	0.2
27	CCN(CC)Cc1c(O)ccc2c(=O)c(Oc3ccccc3OC)c(C)oc12	2.1	0
28	CCOC(=O)C1(Cc2ccc(Cl)cc2)CCN(Cc2cn(CC)nc2C)CC1	0.44	0.16
29	C/C=C(\C)C(=O)NCCN1C2=NC[C@H](C)N2C[C@@H]1Cc1ccc(OC)cc1	2.3	-0.41
30	CCCCCC1C/C(=N\O)C=C(C)C1C(=O)OC (stereo not given)	0.43	0.12
31	O=C(CN1C(=O)C2C3C=CC(C3)C2C1=O)NCCN1CCCc2ccccc21 (stereo not given)	1	-1.2
32	Cc1cc(C)cc(OCC(=O)NCCc2nc3ccccc3[nH]2)c1	0.82	-0.58
33	CC(C)C(NC(=O)C(Cc1ccccc1)NC(=O)OCc1ccccc1)C(=O)O (stereo not given)	0.31	1.9
34	CCc1cc2cc(C)cc(C)c2nc1SCC(=O)NNC(=O)c1ccco1	1.8	-1.6
35	Cc1nc2ncccn2c1-c1csc(Nc2ccc(N(C)C)cc2)n1	0.03	-0.53
36	CC(C)(C)c1cc(Cl)ccc1OCCn1ccnc1	0.35	2.7
37	CCCC(C)NC(=O)COC(=O)c1cc(Br)c(Br)s1 (stereo not given)	0.12	-1
38	O=C(CCn1c(=O)oc2ccccc21)N1CCOCC1	1.6	0.54
39	CC(=O)c1sc(N/N=C\c2cccc(Br)c2)nc1C	0.47	0.83
40	O=C(Nc1ccccc1Cl)NC1(C(=O)N2CCC(O)CC2)CCCCC1	0.71	0.32
41	CCOc1ccc(C(=O)CSc2nnc(C3CC3)n2C)cc1	1.2	0.05
42	O=C1CSC(c2cccnc2)N1Cc1ccc(Cl)c(Cl)c1 (stereo not given)	2.3	1.7
43	Cc1ccc2oc(-c3cccc(NC(=O)Cc4cccs4)c3)nc2c1	0.63	0.45
44	CC(Sc1nnc(Cc2ccc([N+](=O)[O-])cc2)o1)C(N)=O (stereo not given)	0.74	1.4
45	COc1ccc(CN(C)CC2CCCN(CCc3ccccc3C)C2)cc1O (stereo not given)	0.83	-0.17
46	Cc1cc(C)cc(OCc2nnc(SCC(=O)N3CCCCC3)o2)c1	0.11	0.78
47	O=C(/C=C/c1ccco1)NC(=S)Nc1nc(-c2ccc3ccccc3c2)cs1	0.52	1
48	O=C(CSc1nnc(NC(=O)c2ccccc2F)s1)NC1CCCC1	0.08	-0.18
49	O=C(CCCOc1ccccc1)N1CCCCC1	0.08	0
50	Cc1ccccc1NN1C(=O)C=CC1=O	1.2	1.4
51	COc1cc(OC)c(NC(=O)CCCNC(=O)Cn2cnc3sc(C)c(C)c3c2=O)cc1Cl	0.13	1.2
52	O=C1CCC(=O)N1c1ccc(NCCc2ccccc2F)c([N+](=O)[O-])c1	2.2	0
53	CC(C)(C)NC(=S)NC(C)(C)C	1.1	1.7
54	CN(C)S(=O)(=O)c1ccc(C(=O)Nc2nc(-c3cccs3)cs2)cc1	1.4	0
55	Nc1c(C(=O)O)ccc2c1C(=O)c1ccccc1C2=O	0.22	-0.09
56	CCCCC1=CC2=CC(=O)C(C)(O)C(=O)C2=CO1 (stereo not given)	1	-0.01
57	Cc1ccc(C)c(OCCC(=O)Nc2cccc(S(=O)(=O)N3CCCC3)c2)c1	2	0.62
58	O=C1c2ccccc2CC1Sc1nnc(-c2ccncc2)o1 (stereo not given)	1.3	0.59
59	COc1ccc(-n2c(CCC(=O)O)ccc2-c2ccccc2)cc1	0.31	-0.26
60	COc1cc2c(=O)n(CCC(=O)NCC3CCCO3)c(=O)n(CC(=O)c3ccc(Cl)cc3)c2cc1OC (stereo not given)	0.56	-0.18

# Ordered by number of heavy atoms (smallest number first): part of the list above
no.	compound	KCNQ2 pot	KCNQ2 pot baseline
53	CC(C)(C)NC(=S)NC(C)(C)C	1.1	1.7
37	CCCC(C)NC(=O)COC(=O)c1cc(Br)c(Br)s1 (stereo not given)	0.12	-1
55	Nc1c(C(=O)O)ccc2c1C(=O)c1ccccc1C2=O	0.22	-0.09
32	Cc1cc(C)cc(OCC(=O)NCCc2nc3ccccc3[nH]2)c1	0.82	-0.58
48	O=C(CSc1nnc(NC(=O)c2ccccc2F)s1)NC1CCCC1	0.08	-0.18
51	COc1cc(OC)c(NC(=O)CCCNC(=O)Cn2cnc3sc(C)c(C)c3c2=O)cc1Cl	0.13	1.2

# Other structures follow.
no.	compound	KCNQ2 pot	KCNQ2 pot baseline
61	Cc1cc(C)nc(/N=C(\N)Nc2ccc(-c3ccccc3)cc2)n1	0.91	0.88
62	COCCOC(=O)C1=C(C)NC(=O)CC1c1cc2c(cc1Br)OCO2 (stereo not given)	1.3	-1.9
63	C=CCNC(=O)C1CC2Cn3c(nc4cc(C)c(C)cc43)C2N1C (stereo not given)	0.88	1
64	Cc1ccc(C(=O)NS(=O)(=O)c2ccc(N=NN(C)C)cc2)cc1	1.2	-2.6
65	Cc1ccc(-c2cnc(NC(=O)c3cccc(Br)c3)s2)c(C)c1	0.57	-0.58
66	O=C(CSc1nc(=O)n(CCCN2CCOCC2)c2c1CCCC2)Nc1ccccc1Cl	1.8	1.9
67	O=c1[nH]nc(Cc2ccc([N+](=O)[O-])cc2)c2ccccc12	0.18	2.1
68	Cc1ccc(NC(=O)CSc2nnc(NC(=O)c3ccco3)s2)cc1	0.1	0
69	C=CCN=Cc1sc2ccc(OCC)cc2c1O	0.1	-0.01
70	COC(=O)C1=C(C)OC(N)=C(C#N)C1c1c(C)nn(C)c1C (stereo not given)	0.77	-0.89
71	CN(C(=O)c1ccc(NC(=O)c2ccco2)cc1)c1ccccc1	0.56	0.66
72	CC(C)COc1cccc(C(=O)NC(=S)NCc2cccnc2)c1	0.93	0.45
73	COC(=O)c1c(-c2ccc(Br)cc2)noc1N	0.24	0.25
74	COc1ccccc1/C=C/c1onc(C)c1S(=O)(=O)N1CCC(C(=O)NC(C)C)CC1	0.31	-1.4
75	CC(C)(C)OC(=O)N1CCN(C(=O)Nc2ccc3c(c2)OCCO3)CC1	0.11	0.04
76	O=C(NCc1ccc2c(c1)OCO2)c1nnc(Cc2ccc(Cl)cc2)o1	0.87	-1.1
77	O=C(Nc1ccc(NS(=O)(=O)c2ccccc2)cc1)c1ccccc1	0.02	-0.01
78	Clc1cccc(CNCCCSc2ncccn2)c1Cl	0.5	-0.27
79	CN(C)c1ccc(CNC(=O)CCNS(=O)(=O)c2cc(Br)cnc2N)cc1	2	0.21
80	CCOC(=O)/C=C/C(=O)OCC(=O)NC(c1ccccc1)c1ccccc1	0.07	1.3
81	COC(=O)C1CCCN1C(=O)COc1ccc(Br)cc1Cl (stereo not given)	6.6*	0.39*
82	COCCCNC(=O)CSc1nc2sc(C(=O)OC)c(C)c2c(=O)n1N	1.6	-0.58
83	CC1(C)CC(=O)C2=C(C1)Nc1ccccc1NC2c1cc(Cl)ccc1O (stereo not given)	0.65	0.08
84	COc1ccc2nc(NC(=O)c3ccc(-n4nc(C)cc4C)cc3)sc2c1	1.1	0.75
85	COCCCNC(=S)NNC(=O)c1cccnc1	0.04	-0.2
86	O=C(NCCCNC(=O)c1cccs1)c1cccs1	1	0.87
87	CCOC(=O)Cn1c(=O)oc2cc(S(=O)(=O)NC(C)c3ccccc3)ccc21 (stereo not given)	1	0.4
88	Cc1nnc(SCCn2c(N3CCCCC3)nc3c2c(=O)[nH]c(=O)n3C)s1	0.87	0.49
89	Cc1ccc(C)c(C(C)NC(=O)c2ccncc2)c1 (stereo not given)	0.97	-0.96
90	N#Cc1cccc(Oc2ccc(-c3cnc4ccccc4n3)cc2)c1C#N	0.3	-0.07
91	CN(Cc1ccc(-n2cccn2)cc1)C(=O)c1cnn2c1NC(c1ccco1)CC2C(F)(F)F (stereo not given)	0.01	-2.5
92	Nc1[nH][nH]c(=O)c1N=Nc1cccc(Cl)c1	1.2	0.92
93	COc1cc(OC)c2c(c1O)OC(c1ccccc1)CC2=O (stereo not given)	1.5	-3.7
94	O=C(Nc1cccs1)Nc1ccc(Br)cc1F	1.4	1.4
95	O=C(COC(=O)c1cnccn1)c1ccc(-c2ccccc2)cc1	0.72	0.18
96	CCCc1nc2oc3ccccc3c(=O)c2c(=O)n1CCCOC	0.39	-1.6
97	Cc1ccc(S(=O)(=O)N2CCN(C(=O)c3ccc(S(=O)(=O)N4CCCC4)cc3)CC2)cc1	0.52	-0.85
98	Cc1ccc(S(=O)(=O)NC(=O)c2ccccc2)cc1C(C)C	1.7	-2.6
99	O=c1nc(SCc2c(F)cccc2Cl)nc(-c2ccc(Cl)cc2)[nH]1	2.9	-0.78
100	COc1ccc(/C=C2\SC(=S)N(CCC(=O)N3CCOCC3)C2=O)cc1	0.01	-1.1
101	COC(=O)c1ccc(-c2noc(CN(C)Cc3ccncc3C)n2)cc1	0.27	0.01
102	COc1ccc(CN(Cc2ccc(C(=O)O)cc2)C(=S)Nc2ccccc2F)cc1OC	0.83	0.36
103	CC(=O)N1CCc2cc(NS(=O)(=O)c3cccs3)ccc21	1.1	0.03
104	CCN1C(=O)NC(c2ccccc2)(c2ccccc2)C1=O	3.8	-0.47
105	CCOc1ncccc1C(=O)OCc1cc(=O)oc2c(C)c(C)ccc12	1.3	-1.4
106	NC(=O)c1cccc2c3c([nH]c12)CCCC3	2.9	0.71
107	C=CCn1c(SCC(=O)NC2CC2)nc2sc(CC)cc2c1=O	0.66	-0.86
108	Cc1ccc(NC2CCCN(C(=O)c3cccc(-c4ncc[nH]4)c3)C2)cc1C (stereo not given)	2.1	-0.83
109	COc1ccc(Cl)cc1NC(=O)CSc1nnc(C)c(=O)n1N	0.53	-1
110	CN(C)NC(=O)c1csnc1-c1c(Cl)cccc1Cl	0.92	-0.82
111	CC1(C)CC(=O)C2=C(C1)Nc1ccccc1NC2c1ccccn1 (stereo not given)	0.24	1.8
112	CC(C)OC(=O)C(NC(=O)c1ccccc1)=C1CCCCC1	2.4	-1.1
113	CCCC1(C(=O)OCC)NC(c2ccc(N(C)C)cc2)C2C(=O)N(c3ccc(F)cc3)C(=O)C21 (stereo not given)	0.21	-2.2
114	CCOC(=O)c1c(C)[nH]c(C(=O)N/N=C/c2ccc(Br)cc2)c1C	0.09	-0.47
115	O=C(/C=C/c1ccccc1)OCCN=C1NS(=O)(=O)c2ccccc21	3.2	-0.04
116	CCOCCCNC(=O)CCN1C(=O)c2ccccc2Sc2ncccc21	1.9	-2.2
117	Cc1nc(S(=O)(=O)N(C)Cc2ccccc2)c(C#N)c(C)c1Cl	0.02	0.9
118	COc1cccc(C(=O)OCc2cc(=O)oc3c(C)c(C)ccc23)c1OC	0.7	0.35
119	Cc1ccc2nc3c(cc(C(=O)NCC4CCCO4)c(=N)n3CC3CCCO3)c(=O)n2c1 (stereo not given)	0.76	2.5

# Quoted at random: 2 records from the list, in no set order.
no.	compound	KCNQ2 pot	KCNQ2 pot baseline
105	CCOc1ncccc1C(=O)OCc1cc(=O)oc2c(C)c(C)ccc12	1.3	-1.4
117	Cc1nc(S(=O)(=O)N(C)Cc2ccccc2)c(C#N)c(C)c1Cl	0.02	0.9
